# Screening data deposited in PubChem BioAssay by ICCB-Longwood Screening Facility, Harvard Medical School.
# AID504770 = growth inhibition of E. coli YBA685, primary screen, V. cholerae RctB inhibitors. z-score (concentration not given with the values). 130,000 tested, 0.27% active. AID 504770, 2011. E. coli YBA685 rctB-dependent plasmid, OD600 growth, 3 h; hits give low values;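 active means z-score under -2 on both plates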;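 further: wells of about 30 µL received 100 nL stock; score is relative to mean and SD of the test wells; the first replicate is given; strong numbers were not always called active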
# Ba CapD inh = Bacillus anthracis CapD inhibitors, primary screen, biochemical, fluorescence intensity; purified CapD enzyme, fluorescence intensity read-out; hits give low values; some hits fall short of the stated cut; z-score (no concentration beside the values); 140,000 tested, 0.23% active;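 active means z-score under -4 in either of two replicates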;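 further: stock transfer was 100 nL into about 40 µL; score is relative to mean and spread of the plate; one replicate is shown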
# * marks the source's active call; other numbers are inactive results; / = not tested or not shown; & = joins results of further samples.
SMILES,AID504770,Ba CapD inh
Cc1ccc(C(=O)NN(C)c2nc3ccccc3nc2C(F)(F)F)cc1,/,-0.11
CC(=O)N1c2ccccc2C(=O)C1Sc1nc(C)cc(-c2ccccc2)n1 (configuration not stated),0.95,-0.7
CCn1c(=NC(=O)c2cccs2)sc2cc(Cl)ccc21,-0.7,1.2
CN1CCc2nc3sc(C(=O)NC(C)(C)C)c(N)c3cc2C1,-0.25,-0.83
Nc1nonc1-c1nc2ccccc2n1CC(=O)N1CCCCC1,-0.35,-0.38
CNc1nnc(SCc2csc3ccccc23)s1,-0.85,0.15
CC(Oc1cccc(Cl)c1)C(=O)N1CCCC1 (configuration not stated),-0.55,-0.22
CCOc1nc2cnccc2n(C(CC)C(=O)NC2CCCCC2)c1=O (configuration not stated),-0.15,0.52
CC(CNC1CCN(C)CC1)c1ccccc1 (configuration not stated),1.6,0.21
Cc1ccc(N=Cc2ccc3ccccc3n2)cc1,-1.2,0.14
S=C(Nc1ccc(Oc2ccccc2)cc1)NN1CCOCC1,1.5,-0.035
COCC(=O)Nc1ccc(C(C)C)cc1,0.85,0.31
Cc1nc2ccccc2nc1CSc1nnc(C2COc3ccccc3O2)n1C (configuration not stated),-1.1,/
Cc1cccc(NC(=O)c2cccc(Cn3nc(C)c(Cl)c3C)c2)c1C,1.1,0.79
O=[N+]([O-])c1ccc(Oc2c(Cl)cccc2Cl)c(Cl)c1Oc1c(Cl)cccc1Cl,/,-0.05
COC(=O)C(C)Sc1nnc(Cc2cc(=O)[nH]c(=O)[nH]2)n1-c1cccc(C)c1 (configuration not stated),-0.25,/
O=S(=O)(c1ccc(Cl)cc1)N(Cc1ccccn1)Cc1ccccn1,-0.1,0.48
COc1cc(C=C2C(=O)N(C)C(=O)N(C)C2=O)ccc1OCCSc1ccc(C)cc1,/,-0.33
CCOc1ccc(CCNC(=O)Cc2noc3ccccc23)cc1,-0.4,0.15
CCOC(=O)c1ccc(N2N=C(C(F)(F)F)/C(=C/c3cc(Br)c(O)c(OC)c3)C2=O)cc1,/,-0.36
COc1ccc(S(=O)(=O)Nc2cccc3cc(C(=O)NCc4ccc(Cl)cc4)[nH]c23)cc1,/,-0.28
Cc1ccc(Cn2ncc3c(N4CCC(C)CC4)ncnc32)cc1,0.25,0.035
O=C(O)C1CCCN(c2ncnc3c2sc2cccc(F)c23)C1 (configuration not stated),-0.55,7.8
Cc1cc(C)nc(SCC(=O)OCc2nnc(-c3ccccc3)o2)n1,1,/

# Complete entries from above. Values in the order: AID504770, Ba CapD inh
# CC(=O)N1c2ccccc2C(=O)C1Sc1nc(C)cc(-c2ccccc2)n1 (configuration not stated) as listed: 0.95, -0.7
# O=S(=O)(c1ccc(Cl)cc1)N(Cc1ccccn1)Cc1ccccn1 as listed: -0.1, 0.48
# COC(=O)C(C)Sc1nnc(Cc2cc(=O)[nH]c(=O)[nH]2)n1-c1cccc(C)c1 (configuration not stated) as listed: -0.25, /

# Three entries already listed, arranged by formula weight, rising.
SMILES,AID504770,Ba CapD inh
Cc1ccc(Cn2ncc3c(N4CCC(C)CC4)ncnc32)cc1,0.25,0.035
O=C(O)C1CCCN(c2ncnc3c2sc2cccc(F)c23)C1 (configuration not stated),-0.55,7.8
Cc1cc(C)nc(SCC(=O)OCc2nnc(-c3ccccc3)o2)n1,1,/

# (next part)
SMILES,AID504770,Ba CapD inh
COc1cc(OC)cc(C(=O)NCCSc2ccccc2)c1,-0.4,0.11
CCCN(C(=O)C1CC1)c1nnc(-c2ccc(Cl)cc2)s1,-0.15,/
O=C1NC2(CCCCCC2)C(=O)N1CCOc1cccc(Cl)c1,-0.1,/
N#Cc1c(N)sc(=S)c2c1CCCC2,-0.7,-0.85
CCn1c(-c2cc(C)n(C)n2)n[nH]c1=S,-0.9,1.1
O=S(=O)(NC1CCN(Cc2ccc3c(c2)OCCO3)C1)c1cc(Cl)sc1Cl (configuration not stated),/,-0.53
Cc1ccc(C)c(N2CCN(C(=O)Cn3ncc4ccccc43)CC2)c1,0.85,0.01
Cc1ccc(C)c(S(=O)(=O)N2CCN(C(=O)[C@H](C)N3C(=O)C4CC=CCC4C3=O)CC2)c1 (some centres not stated),-0.15,/
COc1ccc(-c2nnc(SCCN3CCCCC3)nc2-c2ccc(OC)cc2)cc1,/,-0.2
O=C(CCc1c[nH]c2ccccc12)Nn1c(SCc2cc(=O)n3cc(Cl)ccc3n2)nc2ccccc2c1=O,/,3.5
Cc1ccc(C(=O)Nc2cc3ccccc3oc2=O)cc1,-0.2,-0.045
COc1cccc2s/c(=N/C(=S)NC(=O)c3ccc(C)cc3)n(C)c12,-0.05,0.61
Cc1sc(N=Nc2c(O)[nH]c(=O)[nH]c2=O)c(C#N)c1C,0.25,/
Cc1cc(SCC(=O)c2ccccc2)n2nc(C)nc2n1,0.05,-0.44
COc1ccc(NC(=O)CCn2c(=O)oc3ccccc32)cc1,-0.6,-0.28
O=C(O)c1ccc(CNCc2ccc(Cl)cc2)cc1,-0.35,0.74
Cc1onc(-c2ccccc2Cl)c1C(O)c1ccc(F)cc1 (configuration not stated),-0.2,0.31
N#Cc1ccc(C(=O)N2CCN(c3ccccc3)CC2)cc1,-0.35,0.01
O=C(CSC1=NC(=O)C(Cc2ccccc2)C(=O)N1)Nc1ccc(Br)cn1 (configuration not stated),/,0.51
COc1ccc(CCNC(=O)CCn2c(SCC(=O)NCc3ccco3)nc3ccccc3c2=O)cc1OC,/,0.06
CC1CCN(CC(=O)Nc2ccc(S(N)(=O)=O)cc2)CC1,0.35,/
Cc1ccc(CCNc2ccccc2)cn1,-0.55,0.99
Cc1cc(S(=O)(=O)Nc2ccc(F)c(Cl)c2)cc(C)c1F,0.05,-0.22
Cc1cc(Nc2ccccc2)n(C)n1,0.35,/
Cc1cn2c(CC(=O)O)csc2n1,-0.15,/
O=C(NCc1ccccn1)c1cc2n(n1)C(C(F)(F)F)CC(c1ccco1)N2 (configuration not stated),-0.6,/
CCCSc1nnc2c3ccccc3n(CCC)c2n1,/,-0.32
Cc1cc(=O)n(-c2ccccc2)n1C,0.05,-1.4&10
Cc1cccc(NC(=O)/C(=C\c2ccco2)NC(=O)c2cccs2)c1,-0.25,/
O=C(COC(=O)C1=NN(c2ccccc2)C(=O)CC1)NC1CCCC1,0.6,/
O=C(OCc1c(F)ccc(F)c1F)N1CCN(Cc2ccccc2Sc2ccc(Cl)cc2)CC1,/,0.3
CC1CCC(C(C)C)C(N)C1 (configuration not stated),1.4,1.2
CC1CCCCN1CCn1cnc2c([nH]c3ccccc32)c1=O (configuration not stated),0.35,18
COCCNC(C)c1ccc(S(C)(=O)=O)cc1 (configuration not stated),/,-0.47
CCOC(=O)N1CCN(S(=O)(=O)N2CCC(C(=O)O)CC2)CC1,-0.8,-0.75
C=CCc1cccc2cc(C(=O)NC(C)c3ccccc3)c(=O)oc12 (configuration not stated),0.1,3.3
Cn1c(=O)[nH]c(=O)c2c1nc(N1CCCCCC1)n2CC(O)COc1ccc([N+](=O)[O-])cc1 (configuration not stated),/,-0.29
O=C(Oc1ccccc1)c1cccc(C(=O)Oc2ccccc2)c1F,0.45,0.1
CCOc1ccc(N=Cc2sc3ccccc3c2O)cc1,-1,-1.3
COc1ccccc1-c1coc2cc(OCC(=O)O)ccc2c1=O,1.8,-0.045
COc1cccc(C2CC(c3cccs3)=NN2C(=O)CSc2nncn2C)c1OC (configuration not stated),2,-0.32
CCC(C)NC(=O)c1cc(C(=O)c2ccccc2)c[nH]1 (configuration not stated),-0.25,-0.02
O=C(CCN1CCN(C(c2ccccc2)c2ccccc2)CC1)c1ccccc1,-0.6,-1.3
OC1(Cc2ccccc2)CCCCC1,1.4,-0.2
CCOc1cccc2c1OC(c1cccc(OC)c1OC)N1N=C(c3ccc(C)o3)CC21 (configuration not stated),/,-0.93
CCOC(=O)C1=C(c2ccccc2)OC(N)=C(C#N)C1c1ccc(Cl)c(Cl)c1 (configuration not stated),/,0.83
COC(=O)/C=C1\S/C(=N\c2ccccn2)N(c2ccc(Cl)cc2)C1=O,-0.35,0.06
CC1CCCCN1CCNC(=O)Cn1ncc2c1-c1ccccc1OC2 (configuration not stated),-1.2,0.055
CC1=C(C(=O)Nc2ccccn2)C(c2ccc(Br)cc2)n2nnnc2N1 (configuration not stated),/,8.3
Cc1ccc(S(=O)(=O)[N-]c2nc3ccccc3nc2-n2cc[n+](C)c2)cc1,1.4,/
CCOc1ccccc1OCCC(=O)O,0.9,/
O=C(Cn1c(=O)oc2cc(Cl)ccc21)N1CCN(c2ccccc2)CC1,-0.55,-0.05
CC1Cc2ccccc2N1C(=O)c1ccc(S(=O)(=O)N2CCCCC2)cc1 (configuration not stated),-1.1,-0.12
Cc1ccc(S(=O)(=O)CCc2nnc(NC(=O)c3ccc(Br)cc3)s2)cc1,/,-0.23
O=C(Nc1ccc(Cl)cc1C(=O)Nc1cccc(Cl)c1)c1ccco1,1.1,0.12
COc1cccc(N2CCN(C(=O)c3cc4c(Cl)nc5ccc(C)cc5c4s3)CC2)c1,0.25,0.65
O=C(CN1CCN(S(=O)(=O)c2ccc(F)cc2)CC1)Nc1ccc(F)c(F)c1,-0.7,0.15
O=C1CSc2ccc(C(=O)NCCN3CCCCCC3)cc2N1,0.55,0.52
Cc1cc(C)c(C(=O)COc2ccccc2O)cc1C,-0.75,/
CS(=O)(=O)NCc1ccc(Cl)cc1,/,0.29

# Looked up one by one from the list above (six):
SMILES,AID504770,Ba CapD inh
Cc1cc(C)c(C(=O)COc2ccccc2O)cc1C,-0.75,/
CCOc1ccccc1OCCC(=O)O,0.9,/
Cc1ccc(S(=O)(=O)CCc2nnc(NC(=O)c3ccc(Br)cc3)s2)cc1,/,-0.23
O=C1CSc2ccc(C(=O)NCCN3CCCCCC3)cc2N1,0.55,0.52
COc1cccc(N2CCN(C(=O)c3cc4c(Cl)nc5ccc(C)cc5c4s3)CC2)c1,0.25,0.65
O=C(Cn1c(=O)oc2cc(Cl)ccc21)N1CCN(c2ccccc2)CC1,-0.55,-0.05

# Continuation.
SMILES,AID504770,Ba CapD inh
O=C(CNC(=O)c1ccccc1F)NC1CCN(Cc2ccccc2)CC1,0.25,/
[O-]/C(=C(\C(=S)Nc1ccccc1)[n+]1ccccc1)c1ccccc1,-0.05,-2.6
COc1ccccc1Nc1nc2nonc2nc1Nc1cccc(Br)c1,/,-0.62
COC(=O)C1=C(O)CSC1=Nc1cccc(C(F)(F)F)c1,0.2,0.93
Cc1cc(-c2ccc(C)c(S(=O)(=O)Nc3cccc(C(F)(F)F)c3)c2)on1,-0.45,0.045
Cn1c(Cc2ccc(Cl)cc2)nc2ccccc21,0.1,/
CCc1ccc(N2C(=O)Nc3ccccc3N2O)cc1,-0.05,0.96
Cc1noc(C)c1COc1cc2ccccc2cc1C(=O)NCC(F)(F)F,-0.1,/
Cc1cc(=O)n(-c2nc3ccccc3[nH]2)[nH]1,0.65&-0.05,-0.09&-0.2
CC1CCC(C2NC(=O)c3ccccc3O2)CC1 (configuration not stated),1.2,-0.22
Cc1cc(NS(=O)(=O)c2ccc(NS(=O)(=O)CC34CCC(CC3=O)C4(C)C)cc2)no1 (configuration not stated),-0.45,/
Cc1cc2c(cc1S(=O)(=O)NCCN1CCCCCC1)OCC(=O)N2,-0.35,-0.5

# Three consecutive compounds already listed:
SMILES,AID504770,Ba CapD inh
CC1CCC(C2NC(=O)c3ccccc3O2)CC1 (configuration not stated),1.2,-0.22
Cc1cc(NS(=O)(=O)c2ccc(NS(=O)(=O)CC34CCC(CC3=O)C4(C)C)cc2)no1 (configuration not stated),-0.45,/
Cc1cc2c(cc1S(=O)(=O)NCCN1CCCCCC1)OCC(=O)N2,-0.35,-0.5

# Going on with the list:
SMILES,AID504770,Ba CapD inh
N#CC(c1ccc(C(=O)c2ccc(F)cc2)cc1)c1ccc(Cl)cc1Cl (configuration not stated),/,-0.35
Cc1ccc(C2=NN(C(=O)CNc3ccccc3C#N)C(c3ccco3)C2)cc1 (configuration not stated),1.3,/
COc1ccc(C(=O)CCC(=O)O)c(C)c1,0.5,0.15
Cc1[nH]c2ccc3c(ncn3CCC#N)c2c1C,-1,1.3
CC(=O)NCCN=Cc1c(O)[nH]c(=O)[nH]c1=O,0.45,/
CCOc1ccccc1CNS(=O)(=O)c1cnc[nH]1,-0.6,0.93
COc1ccc(C2C(Oc3ccc(Cl)cc3C)C(=O)N2c2ccc(C)c(C)c2)cc1OC (configuration not stated),-0.15,0.37
CO/C=C(/Oc1ccc(Cl)cc1Br)C(=O)OC,1.1,-1
CCN(CC)S(=O)(=O)c1ccc(C(=O)Nc2c3c(nn2-c2ccc(F)cc2)CS(=O)(=O)C3)cc1,/,-0.51
Cc1ccc(NC2=C(CC(=O)O)C(c3ccccc3)N(c3ccc(C)cc3)C2=O)cc1 (configuration not stated),/,-0.18
Cn1c(SCc2nc3ccccc3s2)nnc1-c1ccncc1,-0.1,-0.095
Cc1cccc(CSc2nc(N)cc(=O)[nH]2)c1,-0.05,/
c1ccc2c(c1)Nc1cc3ccccc3cc1O2,0.6,63
COc1cccc(C2C3=C(CCCC3=O)OC3=C2C(=O)CCC3)c1OC,/,-0.35
Cc1ccccc1NS(=O)(=O)Cc1ccccc1,3.1,-0.73
CC(CN1CCCCC1)C(=O)NN (configuration not stated),-0.05,0.74
Cc1cc(NC(=O)c2ccc3c(c2)NC(=O)c2ccccc2S3)ccc1Br,-0.15,-0.055
CC1(C)CC2(CCCN(Cc3nc4c(c(=O)[nH]3)C3(CCCC3)Cc3ccccc3-4)C2)CCO1 (configuration not stated),/,0.7
Cc1cc(S(=O)(=O)/N=C/N(C)C)c(Cl)cc1Cl,/,-0.43
CCOC(=O)C1Cn2c(nc3c(c2=O)C2(CCCCC2)Cc2ccccc2-3)S1 (configuration not stated),/,15
CCOC(=O)C1=C2SCCN2C(=O)C(C#N)C1(C)C (configuration not stated),0.7,/
O=C(OCc1nc2ccccc2s1)[C@@H]1CCCN1S(=O)(=O)c1ccc(Cl)cc1,-0.05,/

# No enrichment for hits (roughly 0.37% active in at least one column).
